NPR1 antag – human Npr1 receptor antagonism; P16066; HEK293 hNpr1 GloSensor cGMP, ANP-stimulated luminescence; Potency, µM (titrated, usually from 46.3 µM), for inactives: top-dose activity change, negative = inhibition, actives largely listed as inhibitors; hit rate 1.6% among 76,000; active = well fitted inhibition curve with a large enough effect; inconclusive = small, poorly fitted or top-dose-only effect; inactive = no such curve, though single readings can be large or run the other way;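 also: nearly all actives have a fitted effect of over 60% in size; nearly all hits also lower the signal before the agonist is added; a reference antagonist and vehicle were the controls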
Target sequence (P16066 whole entry, looked up): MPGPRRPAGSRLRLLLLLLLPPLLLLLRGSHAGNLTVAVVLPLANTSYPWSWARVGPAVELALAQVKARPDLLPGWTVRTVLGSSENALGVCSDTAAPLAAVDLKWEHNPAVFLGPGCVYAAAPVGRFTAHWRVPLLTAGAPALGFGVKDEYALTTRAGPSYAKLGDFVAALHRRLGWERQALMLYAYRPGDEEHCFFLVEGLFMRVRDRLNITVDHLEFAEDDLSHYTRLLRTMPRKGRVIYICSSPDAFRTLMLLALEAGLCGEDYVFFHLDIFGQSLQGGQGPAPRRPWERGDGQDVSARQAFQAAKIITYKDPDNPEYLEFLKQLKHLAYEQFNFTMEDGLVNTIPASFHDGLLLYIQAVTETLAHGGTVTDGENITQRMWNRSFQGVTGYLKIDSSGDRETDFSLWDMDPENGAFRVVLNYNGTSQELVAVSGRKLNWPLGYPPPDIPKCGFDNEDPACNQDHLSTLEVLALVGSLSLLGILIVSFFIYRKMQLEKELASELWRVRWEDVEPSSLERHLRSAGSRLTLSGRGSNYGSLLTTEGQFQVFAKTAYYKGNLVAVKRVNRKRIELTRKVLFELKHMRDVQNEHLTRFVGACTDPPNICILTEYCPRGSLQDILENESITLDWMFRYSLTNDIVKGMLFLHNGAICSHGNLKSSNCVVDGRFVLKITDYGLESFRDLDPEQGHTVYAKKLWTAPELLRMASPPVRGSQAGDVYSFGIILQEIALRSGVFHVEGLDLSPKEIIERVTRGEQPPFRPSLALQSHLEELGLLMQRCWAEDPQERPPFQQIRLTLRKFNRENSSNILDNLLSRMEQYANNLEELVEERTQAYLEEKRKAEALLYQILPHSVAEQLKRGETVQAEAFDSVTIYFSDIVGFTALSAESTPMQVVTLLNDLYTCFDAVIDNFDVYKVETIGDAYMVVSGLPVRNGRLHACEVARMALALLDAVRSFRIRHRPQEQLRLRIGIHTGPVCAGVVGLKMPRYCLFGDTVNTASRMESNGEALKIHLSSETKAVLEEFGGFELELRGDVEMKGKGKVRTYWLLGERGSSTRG
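Compound pre-incubated 30 min at room temperature on GloSensor-loaded HEK293 cells stably carrying hNpr1 and the pGS-40F cGMP biosensor. Stimulation uses hNppA at 0.1 nM final; luminescence is taken at baseline and 20 min post-agonist.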
Numbers without * were called inactive; ? = inconclusive; & = joins results of further samples; [ ] = remark or other dose. % is scaled to controls: 0 for no effect and ±100 for the full control effect; potency is read from the fitted curve at half-maximal effect. These rows are one share of the data, so the mix of outcomes need not match the whole.

SMILES	NPR1 antag
CN(C)Cc1nnc(C2CCN(C(=O)c3nc(N)nc4c3CCCC4)CC2)n1C	8%
O=[S+]([O-])(NC1CCN(c2nc3ncccc3o2)CC1)c1cccs1	-19%
Cc1csc(NC(=O)[C@@H]2C[C@H](c3cccc(C(F)(F)F)c3)N(Cc3cnn(C)c3)C2)n1	-13%
Cn1ncc(N2CCC(CNC(=O)CCN3CCCC3=O)C2)cc1=O (stereo not drawn)	9%
Cc1c(F)cccc1NC(=O)N1C[C@@H](F)C[C@H]1C(=O)N1CCOCC1	-10%
COC[C@@H]1CN(C(=O)Cc2ccc(OC)cc2)C[C@H]1C(N)=O	3%
COc1cccc(CNC(=O)C2CCN(C(=O)c3cc4c(=O)[nH]c(C)cn4n3)CC2)c1	22%
O=C(c1ccccc1)N1CCC(N2C(=O)C(OCC3CC3)C23CCCCC3)CC1 (stereo not drawn)	0%
COCCN1C(=O)[C@H]2CN(Cc3cc(Br)ccc3OC)C[C@H]2C1=O	-5%
NC(=O)Cc1c[nH]c2ncc(-c3cccc(O)c3)cc12	-2%[70.6 µM]
COc1ccccc1CCC(=O)NC1CCc2nnc(C)n2CC1 (stereo not drawn)	2%
COCCN1C(=O)[C@@H]2C[C@@H](CN2Cc2ccccc2Cl)Oc2ccccc21	-5%[70.6 µM]
O=C1Nc2ccccc2CC12CCN(Cc1ccc(F)cc1)C2 (stereo not drawn)	0%[70.6 µM]
CSc1cccc(NC(=O)N[C@H]2CCN3C(=O)[C@H](CC4CCCCC4)NC(=O)[C@@H]3C2)c1	-9%
Cc1cc(C)cc(C(=O)N2CCC(n3cnnc3-c3ccccc3)CC2)c1	-3%
Cc1cc(C)n(C2CCN(Cc3cn(-c4ccccc4)nn3)C2)n1 (stereo not drawn)	-3%
CCC1=Nc2cc(C(=O)NCc3ccc(F)cc3)ccc2Sc2ccc(C)cc21	1%
O=C1CCN(Cc2ccncc2)CCCC(C(=O)NCCCN2CCCC2=O)CCN1 (stereo not drawn)	2%
O=c1[nH]c(N2CCOCC2)nc2c1CCN(Cc1cccnc1)CC2	0%
COc1ccc(-c2cn3cc(C(=O)N4CCCCC4)nc3c(=O)n2CC2CC2)cc1	5%
COc1ccc(CCNC(=O)c2c(C)noc2-c2cccc(F)c2)cc1	-3%
CS(=O)(=O)N1CCOc2ccc(CCC(=O)NCCN3CCOCC3)cc2C1	9%
O=C(Cc1ccsc1)N1CCC(n2cnnc2-c2ccccc2)C1 (stereo not drawn)	-1%
COc1ccc(CN(C)CC2CCN(CCc3ccc(F)cc3)CC2)cc1Cn1cccn1	-3%
CC(C)c1ccc(CN2C[C@@H]3[C@H](C2)N(Cc2ccccc2)C(=O)C(C)(C)[S+]3(=O)[O-])cc1	-1%
COc1ccc(C(=O)NCC2CCCCC(=O)N2)cn1 (stereo not drawn)	1%
COCC(=O)N1CC(C(=O)O)C2(CCOCC2)C1 (stereo not drawn)	1%
Cc1noc(C)c1CC(=O)NCCc1noc(C2CC2)n1	-1%
CN(C)CCNC(=O)c1nc(-c2ccccc2)cc2[nH]ccc12	0%[70.6 µM]
CC(C)c1noc(-c2cn(C3CCN(C(=O)COc4ccc(F)cc4)C3)nn2)n1 (stereo not drawn)	0%
O=C(C[C@@H]1C[C@H]2O[C@H](CNCc3cnccc3C(F)(F)F)[C@@H](O)[C@H]2O1)N1CCOCC1	2%
C=CCOC(=O)Nc1nc2c(s1)C[C@@H]1[C@](C)(CO)[C@H](O)CC[C@@]1(C)[C@@H]2CC(=O)N1CCCCC1	-4%
COc1ccc(-c2ccc3nnc(CNC(=O)CNC(=O)c4ccccc4)n3n2)cc1	5%
O=C(Nc1ccnn1C1CCN(C(=O)Cn2cccn2)CC1)C1CCCC1	2%
O=C(Cn1ccn2nc(-c3ccc(F)cc3)c(CO)c2c1=O)Nc1ccc(F)c(Cl)c1	-21%
COc1ccccc1CN1CCCn2nc(C)c(-c3cnccc3C)c21	?
COc1ccc(Cl)cc1NC(=O)CCC1CCCN(c2nc(C)cc(C)n2)C1 (stereo not drawn)	4%
COCc1nc(C2CCCN(C(=O)c3ccccc3F)C2)no1 (stereo not drawn)	3%
Cc1ccc(NC(=O)C2CCCN(c3cn[nH]c(=O)c3)C2)cc1C (stereo not drawn)	-9%
COc1cc(C(=O)N2C3CCCC2CC(=O)C3)nc2ccccc12	-4%[70.6 µM]

Reformatted comma-delimited: entries from further up.
SMILES,NPR1 antag
Cc1noc(C)c1CC(=O)NCCc1noc(C2CC2)n1,-1%
CN(C)CCNC(=O)c1nc(-c2ccccc2)cc2[nH]ccc12,0%[70.6 µM]
CC(C)c1noc(-c2cn(C3CCN(C(=O)COc4ccc(F)cc4)C3)nn2)n1 (stereo not drawn),0%
O=C(C[C@@H]1C[C@H]2O[C@H](CNCc3cnccc3C(F)(F)F)[C@@H](O)[C@H]2O1)N1CCOCC1,2%
C=CCOC(=O)Nc1nc2c(s1)C[C@@H]1[C@](C)(CO)[C@H](O)CC[C@@]1(C)[C@@H]2CC(=O)N1CCCCC1,-4%
COc1ccc(-c2ccc3nnc(CNC(=O)CNC(=O)c4ccccc4)n3n2)cc1,5%
O=C(Nc1ccnn1C1CCN(C(=O)Cn2cccn2)CC1)C1CCCC1,2%
O=C(Cn1ccn2nc(-c3ccc(F)cc3)c(CO)c2c1=O)Nc1ccc(F)c(Cl)c1,-21%
COc1ccccc1CN1CCCn2nc(C)c(-c3cnccc3C)c21,?
COc1ccc(Cl)cc1NC(=O)CCC1CCCN(c2nc(C)cc(C)n2)C1 (stereo not drawn),4%
COCc1nc(C2CCCN(C(=O)c3ccccc3F)C2)no1 (stereo not drawn),3%
Cc1ccc(NC(=O)C2CCCN(c3cn[nH]c(=O)c3)C2)cc1C (stereo not drawn),-9%
COc1cc(C(=O)N2C3CCCC2CC(=O)C3)nc2ccccc12,-4%[70.6 µM]

(further entries)
SMILES	NPR1 antag
Cc1cc(C(=O)NCC(=O)N2CCCCCCNC(=O)CC2c2ccccc2)n(C)n1 (stereo not drawn)	-7%
CCCn1cc2c3c(cccc31)CN(C(=O)c1ccccc1OC)CC2	-13%
O=S(=O)(N[C@H]1CO[C@H]2[C@@H]1OC[C@@H]2n1nnnc1Oc1ccc(-n2cncn2)cc1)c1cccs1	-1%
O=C(c1ccccc1OCC1CCCNC1)N1CCOCC1 (stereo not drawn)	0%
Cc1noc(-c2cn(C3CCN(C(=O)c4ccc(F)cc4)C3)nn2)n1 (stereo not drawn)	0%
COc1ccc(-c2cc(N3CCC(NC(=O)c4ccc(OC)cc4C)C3)n[nH]2)cc1 (stereo not drawn)	-7%
COc1ccc(-c2noc([C@@H]3CCCN3C(=O)C3(c4ccc(OC)cc4)CC3)n2)cc1	?
CC1=C[C@@H](CN2C(=O)C(C)=C(C)C2=O)[C@H](C(C)C)C[C@H]1Cc1nc2ccc(C)cc2[nH]1	?
O=C(N[C@@H]1C[C@H](Cn2cc(C3CC3)nn2)[C@@H](O)[C@H]1O)c1ccc2c(c1)OCO2	-3%[70.6 µM]
COc1cncc([C@@H](NC(=O)c2ccc3c(c2)OCO3)C2CC(O)C2)c1 (stereo partly drawn)	9%&-9%
O=C(NCc1cc2n(n1)CCNC2)C(c1ccccc1)C1CCCC1 (stereo not drawn)	2%
CCOc1ccc(CC(=O)N2CCC[C@H]2c2nc(-c3ccccc3)no2)cc1	-22%
CCCS(=O)(=O)N1CCC2(CC1)CN(C)CC2COC (stereo not drawn)	-5%
Cn1c(Cn2cccn2)nnc1C1CC(NC(=O)c2cc(C#N)c[nH]2)C1 (stereo not drawn)	-12%
Nc1nc(C2CC(N)C2)cc(N2CCCN(Cc3cccs3)CC2)n1 (stereo not drawn)	5%
COc1ccccc1N1CCN(C(=O)C[C@@H]2O[C@H](CNS(=O)(=O)c3ccc(Cl)cc3)[C@@H](O)[C@H]2O)CC1	-3%
COc1ccc(CNC(=O)c2c(OCC3CC3)cc(=O)n3c2CCOCC3)cc1	-1%
Cc1nc2c(c(-c3ccc(O)cc3)n1)CN(Cc1ccccc1)CC2	-6%[70.6 µM]
CCCNC(=O)CC1CCCN(c2cnn(CC3CC3)c(=O)c2)C1 (stereo not drawn)	3%
O=C(C1Cn2cccc2C(=O)N1Cc1ccccc1)N1CCN(c2ncccn2)CC1 (stereo not drawn)	-16%
CCOc1ccc(OCC)c(NC(=O)c2cc3n(n2)CC(c2ccc(Cl)cc2)OC3)c1 (stereo not drawn)	-1%
C=CCn1c(-c2ccccc2Cl)cn2cc(C(=O)N3CCCC(O)C3)nc2c1=O (stereo not drawn)	3%
CCOCc1nc(C2CCCN2C(=O)Cc2cccc(OC)c2)no1 (stereo not drawn)	-8%
Cc1ccc(NC(=O)N2CCCN(C(=O)C3CC3)C(c3ccccc3)CC(=O)NCC2)cc1C (stereo not drawn)	3%
CCn1cc(CN2CCN(S(C)(=O)=O)CC2)ccc1=O	10%
COC(=O)[C@@H]1Cc2c([nH]c3ccccc23)[C@H]2C[C@H](NCCNC(C)=O)C[C@@H](c3ccccc3)N21	-1%
c1ccc(-c2cnc([C@@H]3COCCN3Cc3cnc[nH]3)[nH]2)cc1	0%[70.6 µM]
CCOc1ccccc1CN1C[C@@H](CO)[C@H](C2CCN(C(C)=O)CC2)C1	5%
CCc1ccc(-c2nc(C3CC(=O)N(c4ccc(C)cc4)C3)no2)cc1 (stereo not drawn)	?
COc1cc(NC(=O)Cn2c(N3CCC(C)CC3)nc(C)cc2=O)cc(OC)c1	6.3µM*
c1ccc(Oc2cc3c(cn2)NCCN(Cc2ccsc2)C3)cc1	4%[70.6 µM]
CC(C)Cc1cc(CNC(=O)C(c2ccccc2F)N(C)C)on1 (stereo not drawn)	4%
Cc1c(C(=O)N2CCCC(CO)C2)c(-c2ccccc2)nn1-c1ccccc1 (stereo not drawn)	5%
NC(=O)[C@@H]1CCCN1CC[C@H]1CN(S(=O)(=O)c2ccccc2)CC[C@H]1CC(=O)O	0%[70.6 µM]
CN(c1ccccc1)c1cc(=O)c2ccnc(-c3ccccc3O)c2o1	-4%[70.6 µM]
Cc1ccc(C(=O)NCc2ccnc3[nH]ccc23)cc1	1%[70.6 µM]
CC(C)N1C(=O)C2(CCCC2)C1C(=O)Nc1cccnc1 (stereo not drawn)	8%
COc1ccc(C2(C(=O)N[C@@H]3CN(c4ccncn4)C[C@H]3CN(C)C)CC2)cc1	-2%
CC(Cn1cccn1)Nc1ccc(-c2nc(-c3ccccc3F)no2)cn1 (stereo not drawn)	?
COC[C@@H]1CN(C(=O)c2ccco2)C[C@H]1c1nc(C2CC2)no1	2%
O=c1cc(-c2ccncc2)oc2c(-c3cccc4[nH]ccc34)nccc12	-2%[70.6 µM]
COc1ccc(CNC(=O)C[C@@H]2C[C@@H](C(C)C)[C@H](CNC(=O)c3cccnc3)C=C2C)cc1	-13%
COC1CCOC2(CCN(C(=O)Nc3ccccc3F)CC2)C1 (stereo not drawn)	0%
O=C(NC1CCCCCC1)c1ccc(CN2C(=O)NC3(CCS(=O)(=O)CC3)C2=O)cc1	-11%
CCc1cc(=O)n(Cc2ccccc2)c(N2CCOCC2)n1	2%
NCCn1cc(C(=O)NCc2cccnc2Oc2cccc(C(F)(F)F)c2)nn1	4%
COC[C@@H]1CN(C(=O)c2ccc(C#N)cc2)C[C@H]1c1ccccn1	4%
Cc1cc(C)c(CNC(=O)c2cc(-c3cnn(C)c3C)cc3c2OCCN3C(C)C)c(=O)[nH]1	3%
Fc1ccc(NC2CCCN(Cc3ccc(C#Cc4cncnc4)cc3)C2)cc1F (stereo not drawn)	-25%
O=C(Cc1cccnc1)N1CCCCCCn2c(nnc2-c2ccc(F)cc2)CC1	-3%
COc1ccc2nc([C@H]3CCN(Cc4cccnc4)C3)[nH]c2c1	2%[70.6 µM]
Cc1ccccc1CC(=O)N1CC(C(=O)NCCc2ccncc2)C2(CCOCC2)C1 (stereo not drawn)	-2%
COCCNC(=O)c1nc(-c2ccc(F)cc2)c2ccccn12	6%[70.6 µM]
COCCNC(=O)c1c(OCC2CC2)cc(=O)n2c1CCOCC2	4%
COCCOC(=O)C1=C(C)N=C2SC=C(CC(=O)NCc3cccc(F)c3)N2C1c1ccccc1 (stereo not drawn)	-2%
CCc1nnc(NC(=O)Cn2nc3c(cc2=O)CCCCC3)s1	5%
COc1ccc(C(=O)N2CCCC(Cc3ncc(C)n3C(C)C)C2)cn1 (stereo not drawn)	9%
COc1cccc(C(=O)N2C(C(=O)NCC3CCCO3)COC23CCC(C)CC3)c1 (stereo not drawn)	1%
COc1cc(OC)c(OC)cc1CN1C[C@@H]2C(=O)N(C)C(=O)[C@@H]2C1	0%
O=C(O)C[C@@H]1CCN(Cc2ccc(F)cc2)C[C@@H]1CCN1C[C@@H]2C[C@H](C1)c1cccc(=O)n1C2	2%

Continued:
SMILES	NPR1 antag
C#CCN(CC=C)Cc1cnc(S(=O)(=O)CC2CCCCC2)n1CCOC	1%
CCn1nccc1C(=O)N1C[C@@H]2CCCN3CCC[C@@H]([C@H]23)[C@H]1CCCC(=O)NCC1CC1	-1%
CNC(=O)[C@@H]1CN(C(=O)c2ccoc2)C[C@H]1COC	5%
CCC1(N2CCN(S(=O)(=O)c3ccc(Cl)cc3C)CC2)CCN(C(=O)C(C)C)C1 (stereo not drawn)	?
CC(C)(C)c1ccc(CN2CCN(Cc3cc4n(n3)CCNC4)CC2)cc1	-12%
CCOc1cc(=O)n2c(c1C(=O)Nc1ccc(C(=O)OC)cc1)CCCC2	-4%
CCC1(N2CCN(S(=O)(=O)c3ccc(Cl)s3)CC2)CCN(C(=O)C(C)C)C1 (stereo not drawn)	-11%
CCN(CCNC(=O)C1CCCN(c2cnn(C)c(=O)c2)C1)c1cccc(C)c1 (stereo not drawn)	-2%
CC(=O)Nc1ccc(CN[C@@H]2CO[C@H](CNS(C)(=O)=O)[C@H]2O)cc1	1%[70.6 µM]
COc1ccc(-n2nc(C3CCN(Cc4ccc(F)cc4)CC3)[nH]c2=O)cc1	-22%&0%
